Ecoli growth: blocks Escherichia coli growth; 330,000 tested, 0.21% active; OD600 absorbance (test concentration not listed); OD600, 23 h; active compounds read low;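 active = OD600 absorbance below the run mean of sample wells minus 3.6 SD, in any replicate, cut at about 0.56 in these data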;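 also: stock transfer was 300 nL into about 60 µL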
UCH37 inh: inhibitors of human deubiquitinating enzyme UCH37; Q9Y5K5; purified proteasome/UCH37, Ub-AMC cleavage fluorescence; inhibition, % (test concentration not listed); 330,000 tested, 0.33% active; AID 588478;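 active = mean of two replicates above 20%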;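 also: 0% = compound-free wells with enzyme and 100% = wells lacking proteasome; stock transfer was 100 nL into about 20 µL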
Target sequence (Q9Y5K5 whole entry, looked up): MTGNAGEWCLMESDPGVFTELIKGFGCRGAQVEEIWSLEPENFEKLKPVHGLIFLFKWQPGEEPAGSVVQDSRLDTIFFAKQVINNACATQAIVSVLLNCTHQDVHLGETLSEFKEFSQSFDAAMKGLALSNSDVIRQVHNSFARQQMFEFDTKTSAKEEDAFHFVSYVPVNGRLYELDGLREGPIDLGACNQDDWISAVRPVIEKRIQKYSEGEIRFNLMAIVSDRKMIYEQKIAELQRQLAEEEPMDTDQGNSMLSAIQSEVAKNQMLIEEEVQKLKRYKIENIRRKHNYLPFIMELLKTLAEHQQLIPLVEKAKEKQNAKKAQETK
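Schedule: 30 min plus 25 min, room temperature / Material: human UCH37 within purified proteasomes / Technique: AMC fluorescence intensity at 355/460 nm / Buffer or medium: pH 7.4 Tris-HCl (50 mM) with ovalbumin, ATP-MgCl2, DTT / Controls: wells without proteasome as full block, compound-free enzyme plus substrate as uninhibited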
RanGTP-Imp inh: inhibitors of RanGTP-importin-beta interaction, primary screen, biochemical, FRET, CFP-Ran, YFP-importin-beta, homogeneous. 300,000 tested, 1.1% active. inhibition, % (concentration not given with the values). cell-free CFP-Ran/YFP-importin-beta FRET ratio. AID 2216;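 active = most replicates above 15%; inconclusive = exactly half above 15%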;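 also: 0% = DMSO wells and 100% = Ran loaded with GDP instead of GTP; wells of about 40 µL received 100 nL stock; the first replicate is given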
HNF4A DNA FP: change in binding of human HNF4 alpha to DNA; P41235; HNF4a-FITC DNA binding, fluorescence polarization, 1 h; activity change, % at 10 µM; 360,000 tested, 0.3% active; in the data active = activity change above about 30%, passing the limit was not always enough;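 also: controls were the assay level and a saturating level of protein; the project sought stronger binding though the title names inhibitors; some compounds called inactive have numbers as strong as hits; positive values seem to mean higher polarization but the record does not say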
FGF22 binding: FGF22 (human) thermal shift binding; Q9HCT0; recombinant FGF22 thermal shift, SYPRO orange fluorescence; percent of sucrose octasulfate shift, DMSO zero; calls only at 9.99 µM; 340,000 tested, 1.5% active; AID 651658;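 active = melting point raised past a set limit in the mean and every replicate; inconclusive = no clear call; three in four hits are not shown here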
Target sequence (Q9HCT0 whole entry, looked up): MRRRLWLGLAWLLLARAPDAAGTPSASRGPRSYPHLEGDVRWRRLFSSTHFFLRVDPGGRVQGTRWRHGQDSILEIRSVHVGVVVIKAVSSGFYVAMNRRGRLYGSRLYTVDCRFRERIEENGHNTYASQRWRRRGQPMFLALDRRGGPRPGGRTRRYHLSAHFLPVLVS
AF4-AF9 inh: blocks AF4 peptide binding to human AF9. P42568. AlphaScreen, biotin-AF4 peptide binding to FLAG-AF9. inhibition, % at 10 µM. 350,000 tested, 0.47% active. AID 651704;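 active = every replicate reaching a set inhibition limit, whatever the replicate mean, cut at about 25% in these data; inconclusive = mean inhibition reaches that limit but some replicates miss it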;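 also: 0% = plate neutral control median and 100% = total signal loss; the record names both 10 and 1 µM as test concentration; the first replicate is given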
Target sequence (P42568 whole entry, looked up): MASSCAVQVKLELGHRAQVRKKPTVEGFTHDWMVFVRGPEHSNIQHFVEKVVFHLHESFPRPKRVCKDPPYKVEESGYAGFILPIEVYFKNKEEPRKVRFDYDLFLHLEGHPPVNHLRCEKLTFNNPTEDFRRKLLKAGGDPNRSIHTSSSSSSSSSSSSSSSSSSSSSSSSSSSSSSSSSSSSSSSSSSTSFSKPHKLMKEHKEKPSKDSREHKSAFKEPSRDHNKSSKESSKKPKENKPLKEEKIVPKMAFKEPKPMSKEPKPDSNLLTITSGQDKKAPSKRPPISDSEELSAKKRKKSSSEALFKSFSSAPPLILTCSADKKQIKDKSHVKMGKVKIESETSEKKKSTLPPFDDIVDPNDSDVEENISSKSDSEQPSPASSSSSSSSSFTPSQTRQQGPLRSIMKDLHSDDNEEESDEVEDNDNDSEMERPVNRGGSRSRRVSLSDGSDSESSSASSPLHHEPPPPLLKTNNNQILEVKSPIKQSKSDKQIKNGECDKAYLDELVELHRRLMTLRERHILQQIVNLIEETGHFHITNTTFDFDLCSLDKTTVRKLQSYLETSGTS
Vif A3G: HIV-1 Vif–A3G interaction blockers – biochemical, TR-FRET, GST-Vif 1-94, biotin-A3G peptide, dose response retest, primary screen (AID 1117319); TR-FRET GST-Vif / biotin-A3G peptide binding; higher % means a stronger effect; test concentration not given here; strong numbers were not always called active; one-dose inhibition, %; IC50 in µM for titrated hits; 260,000 tested, 0.57% active;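 active = above the screen mean plus three standard deviations and confirmed in dose response; inconclusive = results disagree or hit not tested in dose response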;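 also: Vif residues 1-94 fused to GST binding biotinylated APOBEC3G peptide 110-148; 0% = full assay without inhibitor and 100% = GST in place of GST-Vif; retest series ran down from 100 µM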
Starred values were filed as active, the others as inactive; i = inactive; u = inconclusive; x = no result given; & = joins results of further samples. A portion of the library; rates above refer to the full screens.

SMILES | Ecoli growth | UCH37 inh | RanGTP-Imp inh | HNF4A DNA FP | FGF22 binding | AF4-AF9 inh | Vif A3G
O=C(NCN1CCN(c2ccccc2)CC1)c1cnccn1 | 0.69 | 0.1 | 0.9 | 1.8 | i | -2.2 | -1%
Cc1ccc(C)c(NS(=O)(=O)c2cc(C(=O)NCCC3=CCCCC3)ccc2C)c1 | 0.66 | 0.0 | 0.5 | -3.7 | x | x | 19%
CNC(=O)CN(c1cccc(Br)c1)S(C)(=O)=O | 0.75 | 3.8 | 0.4 | 0.0 | x | x | -3%
CC(C)(C)C1CCC(=NNC(=O)CC(=O)NCc2ccccc2)CC1 (stereo unspecified) | 0.63 | 0.4 | 12 | 0.1 | i | 3.9 | -2%
O=C(Nc1ccc(S(=O)(=O)N2CCOCC2)cc1)c1ccc(S(=O)(=O)N2CCOCC2)cc1 | 0.68 | -7.3 | 2.8 | 1.2 | i | -1.7 | x
O=C(NCCNc1ccc([N+](=O)[O-])cc1C(F)(F)F)c1cccc(F)c1 | 0.73 | 10 | -0.1 | 1.5 | x | x | x
NC(=O)c1cc2ccccc2o/c1=N/NC(=O)c1cccc(Cl)c1 | x | x | 0.1 | 4.8 | i | -0.6 | -10%
COc1ccc(S(=O)(=O)N2CCC(C(=O)NCCC(=O)Nc3ccccc3OC)CC2)cc1 | x | x | x | -0.5 | i | 0.2 | -1%
Cc1ccc(S(=O)(=O)N2CCOCC2)cc1NC(=O)COC(=O)c1ccco1 | x | x | x | 0.3 | i | -1.0 | 2%
O=C(O)c1cccc2c3c([nH]c12)CCCC3 | 0.65 | 1.1 | u | 0.8 | i | -2.7 | x
COC(=O)c1sccc1NC(=O)c1ccc(Cl)s1 | 0.74 | 0.2 | -4.4 | 1.9 | i | 5.5 | -46%
CCn1nc(C)c(CN2CCC(C(=O)Nc3cccc(-c4cccc(F)c4)c3)CC2)c1C | 0.66 | 4.0 | 0.0 | 0.6 | i | 7.3 | x
COc1ccc(N2C(=O)C(OC(C)=O)C2c2ccc(C)cc2)cc1 (stereo unspecified) | 0.68 | 2.1 | 1.3 | 0.3 | x | x | x
Nc1nc(N)c2sc3nc(C(F)(F)F)cc(C(F)(F)F)c3c2n1 | 0.68 | 1.5 | -1.1 | 6.2 | x | x | 2%
Cc1c(C(=O)OCC(=O)N2c3ccccc3CC2C)oc2ccccc12 (stereo unspecified) | 0.73 | 1.7 | 0.8 | -5.4 | x | x | -2%
CCC(CO)Nc1ncnc2c1cnn2-c1ccc(OC)cc1 (stereo unspecified) | 0.75 | 5.9 | 1.4 | 2.5 | i | -0.9 | u
CN(C)c1ccc(N2C(=O)CSC2=S)cc1 | 0.6 | 4.3 | -1.8 | 1.7 | i | -89 | 8.4µM*
Cc1cc(C)nc(N2C(=O)CC(C(=O)O)NC2=NCCc2c[nH]c3ccccc23)n1 (stereo unspecified) | 0.7 | -0.6 | 9.2 | 1.1 | x | x | 5%
COc1cc(CN2CCNC(=O)C2CC(=O)NCCCN2CCOCC2)cc(OC)c1 (stereo unspecified) | 0.64 | -3.4 | 1.5 | 5.1 | i | -3.1 | x
CCOC(=O)c1sc(NS(=O)(=O)c2ccc(F)cc2)nc1C | 0.67 | 3.5 | 0.4 | 0.9 | i | -1.5 | x
O=C(Nc1ccnn1C1CCN(CCCc2ccccc2)CC1)c1ccccc1 | 0.66 | 0.9 | 2.4 | -1.2 | i | 0.5 | 1%
COc1ccc(/C(N)=N/OC(=O)c2ccc3c(c2)OCO3)cc1 | 0.67 | -0.3 | -4.4 | -1.8 | i | 1.8 | -2%
CN1C(=O)C(O)(CC(=O)/C=C/c2ccco2)c2cc(Br)ccc21 (stereo unspecified) | x | 2.5 | 0.4 | 5.6 | i | 1.9 | 32%
Cc1cc(C(=O)COC(=O)c2ccncc2)c(C)n1Cc1ccco1 | 0.69 | 1.1 | -3.3 | 4.2 | i | 3.9 | 17%
Cn1nccc1NC(=O)Nc1cccc(Cl)c1 | 0.63 | 0.5 | -1.1 | 4.6 | i | 1.4 | -8%
O=C(CN1CCC(NC(=O)c2cccc(F)c2)CC1)NCc1ccccc1F | 0.65 | 4.5 | 6.3 | -1.9 | x | x | >100µM*
Nc1ncc(-c2ccc(-c3ccccc3)cc2F)cc1-c1ccccc1F | x | x | x | -1.6 | i | 1.7 | x
Cc1cccc(C)c1NC(=O)C1c2ccccc2Oc2ccccc21 | 0.67 | 2.1 | -0.4 | 3.1 | x | x | x
CCOC(=O)/C(C#N)=C/c1ccc(OC(=O)c2ccco2)c(OCC)c1 | 0.71 | 5.2 | -1.4 | 4.3 | i | 12 | 10%
CC1CCN(S(=O)(=O)c2ccc(NC(=O)CN3CCCC(C)C3)cc2)CC1 (stereo unspecified) | 0.72 | 2.5 | u | 9.3 | x | x | u

Gathered by group, the entries above containing two or more sulfur atoms (4)
SMILES | Ecoli growth | UCH37 inh | RanGTP-Imp inh | HNF4A DNA FP | FGF22 binding | AF4-AF9 inh | Vif A3G
O=C(Nc1ccc(S(=O)(=O)N2CCOCC2)cc1)c1ccc(S(=O)(=O)N2CCOCC2)cc1 | 0.68 | -7.3 | 2.8 | 1.2 | i | -1.7 | x
COC(=O)c1sccc1NC(=O)c1ccc(Cl)s1 | 0.74 | 0.2 | -4.4 | 1.9 | i | 5.5 | -46%
CN(C)c1ccc(N2C(=O)CSC2=S)cc1 | 0.6 | 4.3 | -1.8 | 1.7 | i | -89 | 8.4µM*
CCOC(=O)c1sc(NS(=O)(=O)c2ccc(F)cc2)nc1C | 0.67 | 3.5 | 0.4 | 0.9 | i | -1.5 | x

(continued)
SMILES | Ecoli growth | UCH37 inh | RanGTP-Imp inh | HNF4A DNA FP | FGF22 binding | AF4-AF9 inh | Vif A3G
c1ccc(-n2ncc3c(NCCN4CCOCC4)ncnc32)cc1 | 0.64 | 1.0 | -1.3 | 1.7 | x | x | 0%
O=C1NC(Cc2ccc(O)cc2)c2nc3ccc(Cl)cc3c(=O)n2-c2cc3ccccc3cc21 (stereo unspecified) | x | x | x | 2.7 | i | 0.7 | -4%
COc1ccc(Cc2noc(CN(C)CC3CCN(Cc4ccccc4)CC3)n2)cc1OC | 0.71 | 0.2 | 0.6 | 2.1 | i | -18 | 6%
CCCn1c(SCC(=O)Nc2c(C)cccc2CC)nnc1C(C)C | 0.68 | 4.7 | 4.3 | -0.7 | x | x | -4%
Cn1cnc2cc(NCc3ccccc3Cl)ccc21 | 0.61 | -5.5 | 7.8 | 3.2 | i | -0.2 | x
CC1(C)Cc2c(C#N)c(N)sc(=S)c2CS1 | 0.67 | 6.3 | -0.8 | -8.3 | x | x | 31%
Cc1cccn2c(=O)c(C=O)c(N3CCSCC3)nc12 | 0.63 | 7.3 | 1.1 | -4.2 | i | -1.1 | 3%
COc1ccc(NS(=O)(=O)c2cc(NC(=O)c3ccc(C)s3)ccc2N2CCOCC2)cc1 | 0.71 | 3.8 | 11 | 0.0 | i | -28 | x
Clc1ccccc1C1SCC2Nc3ccccc3CN21 (stereo unspecified) | 0.76 | -0.5 | -4.3 | 7.0 | x | x | 9%
COCCNC(=O)C1(C)C=CC2(CCCCC2)N1C(=O)c1ccccc1 (stereo unspecified) | 0.68 | 5.1 | -1.4 | 2.0 | i | -2.0 | -1%
Cc1ccc(S(=O)(=O)NNC(=O)c2ccc(O)cc2)cc1 | 0.7 | 0.5 | 5.8 | -2.7 | x | 2.6 | 0%
CCN(CC(=O)NC1CCCC1)S(=O)(=O)c1ccc(Br)cc1 | 0.7 | 2.6 | u | 2.5 | i | -3.1 | 12%
CC1=C(C(=O)OCC(C)C)C2(O)C(=O)c3ccccc3C2(O)N1 (stereo unspecified) | 0.67 | 9.7 | 0.0 | 1.7 | x | x | 4%
Cc1ccccc1S(=O)(=O)NC(=O)C1(C)CCN1C(=O)CC1CCCC1 (stereo unspecified) | x | x | x | -3.4 | i | -3.1 | x
CCOc1ccc(CN(C)CC(=O)NNC(=O)c2ccc(Cl)cc2)cc1OC | 0.68 | 2.6 | 4.0 | -3.1 | i | 1.6 | x
CCCNC(=O)[C@@H]1CCCN1C(=O)C1CCN(S(=O)(=O)c2ccc(C)cc2)CC1 | 0.62 | 1.8 | 3.8 | 1.1 | i | -2.7 | x
O=C(c1ccc2c(c1)CCC2)N1CCN(Cc2ccccc2)CC1 | x | x | x | 1.3 | i | -2.6 | x
Cc1ccc(CN2CCSc3ccc(C(=O)NCc4cccnc4)cc32)cc1 | 0.71 | -335 | 5.2 | -1.2 | x | x | -7%
CCOc1ccc(NC(=O)CCNS(=O)(=O)c2ccc(Br)s2)cc1 | 0.66 | 2.4 | 0.1 | 2.3 | x | x | 1%
Cc1ccc(C)c(S(=O)(=O)Nc2ccc(S(=O)(=O)Nc3onc(C)c3C)cc2)c1 | 0.75 | -1.3 | 1.8 | 3.4 | x | x | 1%&-6%
CCN(CC)C(=S)SCC(=O)Nc1nc(=O)c2ccccc2s1 | 0.71 | 1.1 | -0.2 | 0.3 | i | -3.9 | -16%
Nc1nc(-c2ccccc2)c(CCCOc2ccc([N+](=O)[O-])cc2)c(=O)[nH]1 | x | x | x | 4.2 | i | -7.6 | -2%
CCCCCCc1ccc(N2C[C@H](Cc3ccccc3)[C@@H](CC(=O)NCc3ccc(OC)cc3)C2=O)cc1 | x | 5.1 | -12 | -2.2 | i | -0.9 | x
Cc1ccn2cc(CCNC(=O)CC3CCCCC3)nc2c1 | 0.71 | -1.2 | 6.9 | 0.8 | i | -4.3 | 1%
C[C@H](NC(=O)c1[nH]cnc1C(=O)Nc1ccc(CNC(=O)OC(C)(C)C)cc1)C(=O)OC(C)(C)C | x | 4.4 | 3.4 | -1.8 | i | -0.9 | -2%
CCn1c(SCC(=O)Nc2ccccc2N2CCCCC2)nc2c1c(=O)n(C)c(=O)n2C | 0.69 | 5.5 | -0.4 | 1.1 | x | x | 5%&-4%
CN(C)/C=C1/C(=O)Nc2ccccc21 | 0.69 | 10 | 4.1 | 1.7 | x | x | 15%
NC(=O)c1ccsc1NC(=O)COC(=O)/C=C/c1ccc([N+](=O)[O-])cc1 | 0.71 | 7.4 | 5.8 | -9.1 | i | 0.1 | -4%
CCN(C(=O)c1cn(C)c(=O)c2cc(OC)c(OC)cc12)c1cc(C)ccc1C | 0.69 | -0.7 | 2.5 | 1.0 | x | x | -6%
COc1cc(CN2CCN(Cc3ccc(C)cc3)C(CCO)C2)cc(OC)c1O (stereo unspecified) | 0.66 | 1.9 | 3.1 | -2.2 | i | 2.7 | u
CCC(=O)N1N=C(c2ccc(NS(C)(=O)=O)cc2)CC1c1ccc(C)cc1 (stereo unspecified) | 0.73 | -490 | x | 7.0 | x | x | 37%
COc1ccccc1NC(=O)C(NC(=O)c1ccc(C)cc1)c1ccccc1 (stereo unspecified) | 0.71 | 4.2 | 1.6 | -1.1 | i | 2.3 | x
COc1cc(OC)nc(Oc2cc(/C=N/O)ccc2OC)n1 | x | x | 1.4 | 3.0 | i | -2.9 | -1%
CCNc1nc(NCC)n2c(SC(C)C(=O)c3ccc(C)cc3)nnc2n1 (stereo unspecified) | 0.72 | 0.8 | 3.9 | -2.5 | i | 3.7 | x
O=C(NC1CCN(C(=O)Nc2cccc(Cl)c2)CC1)c1ccccc1 | 0.71 | 1.6 | 3.2 | 3.4 | i | -14 | x
Cc1ccc(/C=C2\C(=N)N3N=C(CC(=O)N4CCOCC4)SC3=NC2=O)o1 | 0.69 | 18 | 3.7 | -2.7 | i | -6.7 | x
CCc1ccc(CN(C)C(=O)C2=CC=CN3CCS(=O)(=O)N=C23)cc1 | 0.69 | -17 | x | 0.5 | i | -11 | -8%
